miR-21 FLuc = raises the signal of a miR-21 reporter. 340,000 tested, under 10 active. HeLa miR-21 FLuc reporter, luciferase, 48 h. Potency, µM (doses to about 38.3 µM), inactives show at the top dose reporter change, positive = more light; active = well fitted rising curve with a large enough effect; inconclusive = small, poorly fitted or top-dose-only effect; inactive = no such curve, though single readings can be large or run the other way;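 also: % of control where 0% means no effect; miR-21 action dims this reporter so a rising signal means less miR-21 action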
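Compounds were titrated across several concentrations (up to approximately 40 uM) and incubated 48 hours with HeLa miR-21-FLuc reporter cells (miR-21 target sequence downstream of FLuc, endogenous miR-21). Readout was firefly luciferase luminescence after lytic detection reagent.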
Rango release inh = inhibition of RanGTP-driven Rango-importin beta dissociation | Biochemical FRET Rango-importin beta, RanGTP-induced dissociation | O95149+P62826 | 0.071% of 340,000 active | AID 540253 | Potency, µM (titrated, usually from 46.1 µM), inactives show at the top dose activity change, negative = inhibition; active means falling FRET ratio curve, often poorly fitted, with flat reads before Ran was added; inconclusive means other falling curves, or compound fluorescence or quenching; inactive means flat or rising ratio curve;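 also: potency is read from the fitted curve at half-maximal effect; % of control where 0% means no effect; nearly all actives have a fitted effect of over 45% in size; -100% = wells without RanGTP and RCC1; the record marks most hits as doubtful in a second field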
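Two FRET readings bracket the reaction: one 5 min after compound meets Rango–importin beta, another 45 min after RanGTP-RCC1 (0.6 uM Ran, 0.2 uM RCC1, 2 mM GTP) is added. Only the second defines inhibition.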
GLA inh pH 4.5 = blocks human alpha-galactosidase A at pH 4.5; purified enzyme, 4-MU-alpha-Gal fluorescence, pH 4.5; 230,000 tested, under 10 active; activity change, negative = inhibition, % at 105 µM; P06280; AID 1467; inconclusive = small, poorly fitted or top-dose-only inhibition, or a rising curve; inactive = flat fitted curve, though single readings scatter; no compound was filed as active;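 also: 0% = full activity with enzyme and -100% = basal without enzyme; dose as in the result columns while the protocol names 77 µM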
Rango-impB inh = inhibitors of Rango-importin beta complex formation; Rango CFP/YFP FRET sensor + importin beta, 45 min; Potency, µM (top dose mostly 92.2 µM), for inactives: top-dose inhibition of complex formation; 0.031% of 340,000 active; active = rising FRET ratio curve, often small or poorly fitted; inconclusive = mostly compound fluorescence or quenching in the first reads; inactive = flat curves in all reads;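 also: potency is read from the fitted curve at half-maximal effect; 0% = DMSO wells and 100% = buffer wells lacking importin beta; nearly all actives have a fitted effect of over 15% in size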
Target sequence (Q14974 whole entry, looked up): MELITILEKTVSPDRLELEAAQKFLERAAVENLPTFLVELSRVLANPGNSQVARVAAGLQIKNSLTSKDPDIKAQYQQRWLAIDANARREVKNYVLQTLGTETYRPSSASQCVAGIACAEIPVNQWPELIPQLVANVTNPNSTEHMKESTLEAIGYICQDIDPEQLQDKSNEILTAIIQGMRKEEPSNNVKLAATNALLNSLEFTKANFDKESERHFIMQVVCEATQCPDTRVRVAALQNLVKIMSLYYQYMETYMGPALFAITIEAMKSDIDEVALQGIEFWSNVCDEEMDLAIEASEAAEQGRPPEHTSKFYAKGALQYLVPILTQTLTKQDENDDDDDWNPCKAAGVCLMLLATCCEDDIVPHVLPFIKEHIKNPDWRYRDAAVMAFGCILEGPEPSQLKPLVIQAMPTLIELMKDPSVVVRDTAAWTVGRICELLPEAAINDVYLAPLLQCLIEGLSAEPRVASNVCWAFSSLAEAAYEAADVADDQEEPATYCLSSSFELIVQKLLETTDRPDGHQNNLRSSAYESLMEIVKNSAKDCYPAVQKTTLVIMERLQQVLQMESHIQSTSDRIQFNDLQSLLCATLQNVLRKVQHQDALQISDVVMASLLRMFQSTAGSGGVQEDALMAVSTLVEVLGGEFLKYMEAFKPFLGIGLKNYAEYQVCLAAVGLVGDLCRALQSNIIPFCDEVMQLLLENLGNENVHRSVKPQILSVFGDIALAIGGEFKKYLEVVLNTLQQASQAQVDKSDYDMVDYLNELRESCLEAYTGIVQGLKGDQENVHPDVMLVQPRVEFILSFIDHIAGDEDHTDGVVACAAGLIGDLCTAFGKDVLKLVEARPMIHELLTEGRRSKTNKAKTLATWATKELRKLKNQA
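Inhibition scored from the CFP 486 nm/YFP 530 nm FRET ratio 45 min after adding 0.125 microM importin beta to 50 nM Rango biosensor preincubated 5 min with compound (room temperature, PBS with DTT, Tween-20, BSA). No-importin wells as positive control.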
Starred values were filed as active, the others as inactive; u = inconclusive; x = not tested or not shown; & = joins results of further samples; [ ] = another dose, or the depositor's remark. These rows are one share of the data (hit frequency here may not be typical).

SMILES | miR-21 FLuc | Rango release inh | GLA inh pH 4.5 | Rango-impB inh
CCn1c(O)c(N=Nc2ccc(S(=O)(=O)N3CCOCC3)cc2)c(=O)n(CC)c1=S | 4.0% | 3.3% | -3.5 | -0.2%
O=C1C2C3CCC(O3)C2C(=O)N1CCO (configuration not stated) | 2.5% | 1.7% | 5.4 | 0.9%
Cc1ccc2c(c1)CC1(CN2C)C(=O)NC(=O)N(CCC2=CCCCC2)C1=O (configuration not stated) | -2.7% | 0.1% | -2.4 | -0.5%
CNCC1(c2ccccc2)CCCC1 | -5.3% | 38.0% | 4.6 | 2.6%
COc1cc2c(c(OC)c1OC)-c1ccc(O)cc1[C@@H](NC(C)=O)CC2 | x | 16.8% | x | u
CCNC(=O)C1OC(n2cnc3c(N)ncnc32)C(O)C1O (configuration not stated) | x | 7.0% | x | 3.5%
[N-]=[N+]=NCc1cn2cccnc2n1 | 0.3% | 1.0% | 4.6 | 1.4%
O=P(Nc1ccccc1)(Nc1ccccc1)Oc1ccccc1 | 1.2% | 0.0% | -7.4 | -1.2%
O=C1CC(=O)N(Cc2ccccc2)C(=O)N1 | x | -6.9% | x | 0.3%
O=C(COC(=O)Cc1ccccc1)Nc1ncc(Cl)cc1Cl | 2.3% | 12.2% | 8.1 | 1.8%
Cc1cccc(CN2CCN(c3ccc(Cl)cc3)CC2)c1 | -4.4% | 29.6% | -2.1 | -0.4%
COc1cccc(C(=O)N2C[C@H]3C[C@@H](C2)c2cccc(=O)n2C3)c1 | -2.1% | -2.2% | x | -2.3%
Cc1ccc(CN(Cc2ccccc2)C(=S)NCC(=O)N2CCC3(CC2)OCCO3)o1 | 9.2% | 5.4% | -8.4 | -0.4%
Cc1cc(OCC(=O)NC(Cc2ccc(Cl)cc2)C(=O)O)c2c3c(c(=O)oc2c1)CCCC3 (configuration not stated) | -12.5% | -11.7% | x | -1.2%
Cc1nn(CC(C)C)c(Cl)c1C(=O)NC1CCCCC1 | x | -3.1% | x | -1.4%
COc1ccc(OC)c(-n2c(O)c(C=NCCN3CCNCC3)c(=O)[nH]c2=S)c1 | -2.7% | -11.6% | x | 3.7%
Cc1sc(-n2c(C)cc(C=C3C(=O)NC(=O)NC3=O)c2C)c(C#N)c1C | -2.8% | -1.8% | 13.0 | -5.7%
CCN(CC)c1ccc(N=Cc2c(O)n(-c3ccc(Cl)cc3)c(=O)[nH]c2=O)cc1 | -1.2% | -22.7% | -2.8 | u
CC(=O)c1c(C)n(Cc2ccccc2)c2ccc(O)cc12 | 13.0% | u | -12.6 | u
CCCCn1c(=O)c(C(=O)Nc2ncccc2C)c(O)c2ccccc21 | 17.6% | u | x | -0.7%
c1ccc(-c2nnc(SCc3nc4ccccc4[nH]3)o2)cc1 | 5.1% | 8.7% | -4.5 | u
Cc1ccc(-n2c(O)c(/C=N/N3CCCCCC3)c(=O)[nH]c2=O)cc1C | -7.0% | -10.3% | -17.6 | -3.8%
Fc1ccc(CCNCc2ccc(Cl)c(Cl)c2)cc1 | 0.6% | 17.0% | -2.8 | -1.9%
c1ccc2sc(C3CCCNC3)nc2c1 (configuration not stated) | -25.6% | -5.9% | 5.3 | 0.4%
c1ccc2c(CCNC3CCCCC3)c[nH]c2c1 | -6.6% | 20.8% | -4.7 | 0.3%
CN1C2CC(OC(=O)C(CO)c3ccccc3)CC1C1OC12 (configuration not stated) | 0.2%&2.3% | 11.5%&-26.7%&12.6% | -5.5 | -1.0%&-1.2%&1.1%
CCCC/C(=N/O)c1c(C)[nH]c2ccccc12 | -1.4% | 3.1% | 5.9 | -2.1%
CN1CN=C(N[N+](=O)[O-])N(Cc2ccco2)C1 | -6.0% | -4.6% | 12.9 | -0.3%
COc1ccc(CNC(=O)c2ccc(C(C)C)cc2)cc1 | -68.0% | -7.2% | 1.7 | 0.6%
Cc1ccc2cc(CNCCc3ccccc3C)c(=O)[nH]c2c1 | -3.6% | u | x | -2.4%
O=[N+]([O-])c1oc2ccc3ccccc3c2c1CCO | x | u | x | -0.3%
CC1=C(C/C(C)=C/c2ccccc2)/C(=C/CO)[C@H](O)[C@](C)(O)C12CC2 | x | 5.2% | x | -1.6%
COCCNC(=O)c1c(NC(=O)c2ccc(Br)o2)n(Cc2ccccc2)c2nc3ccccc3nc12 | 22.6% | u | 2.9 | u
Clc1cc(Cl)cc(NC2=NCCS2)c1 | -3.6% | 1.0% | -26.3 | 0.7%
COc1ccc(CCn2c(O)c(C=Nc3ccc(NC(C)=O)cc3)c(=O)[nH]c2=O)cc1OC | 0.0% | u | -3.5 | u
CCN1CCN(c2ccc(N)cc2)CC1 | -6.5% | -5.7% | 7.5[21.1 µM] | 5.9%

Reformatted with values under each structure: entries from further up
Value order – miR-21 FLuc, Rango release inh, GLA inh pH 4.5, Rango-impB inh
- c1ccc(-c2nnc(SCc3nc4ccccc4[nH]3)o2)cc1
  5.1%, 8.7%, -4.5, u
- CC(=O)c1c(C)n(Cc2ccccc2)c2ccc(O)cc12
  13.0%, u, -12.6, u
- CCn1c(O)c(N=Nc2ccc(S(=O)(=O)N3CCOCC3)cc2)c(=O)n(CC)c1=S
  4.0%, 3.3%, -3.5, -0.2%
- COc1ccc(CNC(=O)c2ccc(C(C)C)cc2)cc1
  -68.0%, -7.2%, 1.7, 0.6%

Some of the entries so far, in markdown:
| mol | miR-21 FLuc | Rango release inh | GLA inh pH 4.5 | Rango-impB inh |
| --- | --- | --- | --- | --- |
| CN1CN=C(N[N+](=O)[O-])N(Cc2ccco2)C1 | -6.0% | -4.6% | 12.9 | -0.3% |
| Cc1ccc2cc(CNCCc3ccccc3C)c(=O)[nH]c2c1 | -3.6% | u | x | -2.4% |

Other records follow:
SMILES | miR-21 FLuc | Rango release inh | GLA inh pH 4.5 | Rango-impB inh
O=C1NC(=O)N(c2ccc(F)cc2)C(=O)/C1=C/c1ccsc1 | -3.5% | -27.8% | -0.9 | u
C=CCn1c(O)c(C(C)=Nc2ccc3c(c2)CCC3)c(=O)[nH]c1=O | -14.7% | -17.1% | 1.7 | 0.2%
O=C(Nc1ccccc1)N1Cc2ccccc2-n2nncc2C1 | x | 0.8% | x | -0.9%
O=C1/C(=C/c2cc3c(cc2Cl)OCO3)N2CCC1CC2 | -9.0% | x | -5.1 | x
CCNC(=O)N1c2ccccc2Sc2ccccc21 | 4.9% | 1.2% | u | 1.5%
CN1CCN(c2nc(N)c(Br)c(Cl)n2)CC1 | -5.9% | -9.6% | -26.2 | 0.1%
COc1ccc(NC(=O)[C@@H](NC(=O)N2C[C@H]3C[C@@H](C2)c2cccc(=O)n2C3)C(C)C)cc1 | -11.6% | -8.9% | x | -1.4%
C1CC2NCCC3NCCC(N1)N32 (configuration not stated) | -3.2% | -18.9% | 12.7 | 0.4%
C[C@H](CO)N1C[C@H](C)[C@@H](CN(C)S(=O)(=O)c2cccs2)Oc2ccc(NC(=O)Nc3ccc(C(F)(F)F)cc3)cc2C1=O | x | -9.5% | x | u
O=C(/C=C/c1ccc(F)cc1)NC(=S)N1C[C@H]2C[C@H](C1)c1cccc(=O)n1C2 | 2.5% | -4.1% | x | 4.6%
C[C@]12CCC(OC(=O)CCC(=O)O)CC1=CCC1C2CC[C@]2(C)C(=O)CCC12 (some centres not stated) | -2.8% | -23.5% | x | 5.9%
O=C1NC(=O)N(Cc2ccccc2)C(=O)/C1=C/c1cnc(-c2ccccc2)nc1 | -12.0% | -4.5% | 4.7 | 0.4%
Cc1ccc(NC(=O)O/N=C/c2cccc([N+](=O)[O-])c2)cc1 | -60.1% | 1.4% | -28.5 | 3.3%
CNC(C(=O)c1ccccc1)C(OC)c1ccc(C)cc1 (configuration not stated) | -29.1% | -4.4% | -1.1 | -2.2%
CCCCC(=O)C1C(=O)NC(=O)NC1=O | -9.1% | -2.6% | 7.5 | -4.0%
COc1ccccc1NC(=O)COC(=O)c1cn(C)c2ccccc12 | x | 2.9% | x | -0.7%
Cc1ccc(-c2nc3ccccc3c(=O)n2-c2cc(C)ccn2)cc1 | -16.1% | -10.6% | 0.6 | -0.7%
O=c1[nH]c(=O)n(CCC2=CCCCC2)c(O)c1/C=N/Nc1ccccc1 | 17.8% | -17.5% | 7.7 | 2.2%
COC(=O)C1=C(c2cccc(OCc3ccccc3)c2)C[C@@H]2CC[C@H]1N2C(=O)NCc1ccc(Cl)cc1 | x | -9.6% | x | -0.1%
CCOc1cc(-c2nc3c(C)cccn3c2NCC2CCCO2)ccc1O (configuration not stated) | -9.7% | 5.1% | 7.2 | 0.2%
S=c1[nH]nc(Cn2c(-c3ccccn3)nc3ccccc32)n1-c1ccc2c(c1)OCCO2 | -37.9% | -10.9% | 0.9 | -4.4%
Cn1c(N2CCNCC2)nc2ccccc21 | -2.9% | 8.9% | 3.2 | 0.1%
COC(=O)C1=C(c2c(C)noc2C)C[C@@H]2CC[C@H]1N2C(=O)NCCOc1ccccc1Cl | x | 9.9% | x | 0.7%
COc1cc(OC)c(OC)cc1CNCCc1cccc(F)c1 | -8.0% | -4.0% | x | 0.2%
CC(C)CCn1c(=O)c(C(=O)NCc2ccco2)c(O)c2ccccc21 | -0.7% | 11.9% | 0.6 | 1.1%
COc1ccc(-n2c(-c3ccccc3Br)nc3ccccc3c2=O)cc1 | 3.8% | 4.8% | x | 0.2%
Cc1ccc(Cn2nnnc2CN2CCC(n3nnc4cc(C(F)(F)F)ccc43)CC2)cc1 | 6.6% | 12.5% | -17.7 | 1.5%
Fc1ccc2c(c1)nnn2C1CCN(Cc2nnnn2C2CCCCC2)CC1 | -10.1% | -3.2% | 4.7 | 2.5%
Cc1c(NP(=S)(C(C)(C)C)C(C)(C)C)c(=O)n(-c2ccccc2)n1C | -0.4% | 4.1% | 13.1 | -0.5%
O=S(=O)(c1ccccc1)N1CN2CCN(C2)C1 | -1.6% | 17.8% | 4.1 | -0.3%
CCCCn1c(O)c(C(CC)=NCc2ccc(F)cc2)c(=O)[nH]c1=O | -0.2% | -1.4% | -18.7 | -4.6%
CN1CCN(Cc2ccc(OC(F)(F)F)cc2)CC1 | 0.5% | -13.3% | -1.5 | 0.5%
CCC(=NCC1CCCO1)c1c(O)n(-c2ccc(Cl)cc2)c(=O)[nH]c1=O (configuration not stated) | 2.6% | -11.6% | 2.3 | 0.9%
COC(=O)C1=C(c2ccc(F)cc2F)C[C@@H]2CC[C@H]1N2C(=O)NC(C)C | x | 1.9% | x | 6.2%
COc1ccc2c(c1)[C@@]13CCC=C[C@H]1[C@@H](C2)NCC3 | x | -7.6% | x | 1.5%
CC(=O)O[C@@]12CO[C@@H]1C[C@H](OC1OCC(O)C(O)C1O)[C@@]1(C)C(=O)[C@H](O)C3=C(C)[C@@H](OC(=O)[C@H](O)[C@@H](NC(=O)c4ccccc4)c4ccccc4)C[C@@](O)([C@@H](OC(=O)c4ccccc4)C12)C3(C)C (some centres not stated) | 15.9% | -8.3% | x | -2.1%
O=C(C1CCCN(c2nnc(-n3cccc3)s2)C1)N1CCC2(CC1)OCCO2 (configuration not stated) | -6.2% | 6.4% | -3.9 | u

Arranged by heavy-atom count (smallest number first): part of the list above.
SMILES | miR-21 FLuc | Rango release inh | GLA inh pH 4.5 | Rango-impB inh
Clc1cc(Cl)cc(NC2=NCCS2)c1 | -3.6% | 1.0% | -26.3 | 0.7%
c1ccc2c(CCNC3CCCCC3)c[nH]c2c1 | -6.6% | 20.8% | -4.7 | 0.3%
Fc1ccc(CCNCc2ccc(Cl)c(Cl)c2)cc1 | 0.6% | 17.0% | -2.8 | -1.9%
O=C(Nc1ccccc1)N1Cc2ccccc2-n2nncc2C1 | x | 0.8% | x | -0.9%
COc1cccc(C(=O)N2C[C@H]3C[C@@H](C2)c2cccc(=O)n2C3)c1 | -2.1% | -2.2% | x | -2.3%
CCCCn1c(O)c(C(CC)=NCc2ccc(F)cc2)c(=O)[nH]c1=O | -0.2% | -1.4% | -18.7 | -4.6%
O=C1NC(=O)N(Cc2ccccc2)C(=O)/C1=C/c1cnc(-c2ccccc2)nc1 | -12.0% | -4.5% | 4.7 | 0.4%
